Bioassay records from PubChem BioAssay.
GLA inh pH 4.5: alpha-galactosidase A (human) inhibition, pH 4.5 | AID 1467 | purified enzyme, 4-MU-alpha-Gal fluorescence, pH 4.5 | activity change, negative = inhibition, % at 105 µM | 230,000 tested, under 10 active | P06280; inconclusive = small, poorly fitted or top-dose-only inhibition, or a rising curve; inactive = flat fitted curve, though single readings scatter; no compound was filed as active;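 further: 0% = full activity with enzyme and -100% = basal without enzyme; dose as in the result columns while the protocol names 77 µM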
miR-21 FLuc: miR-21 reporter, rising signal | HeLa miR-21 FLuc reporter, luciferase, 48 h | Potency, µM (highest dose often 38.3 µM), inactives show at the highest dose reporter change, positive = more light | 340,000 tested, under 10 active; active = well fitted rising curve with a large enough effect; inconclusive = small, poorly fitted or top-dose-only effect; inactive = no such curve, though single readings can be large or run the other way;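 further: % of control where 0% means no effect; miR-21 action dims this reporter so a rising signal means less miR-21 action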
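Using DMEM plus 10% FBS, HeLa miR-21-FLuc cells are incubated with test compounds (final up to about 40uM) for 48 hours; firefly luciferase signal is then imaged following reagent-mediated lysis.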
Rango dissoc inh: inhibitors of RanGTP-induced Rango-importin beta complex dissociation | Potency, µM (series often up to 46.1 µM), without a hit: at the highest dose activity change, negative = inhibition | hit rate 0.071% among 340,000 | Biochemical FRET Rango-importin beta, RanGTP-induced dissociation; active means falling FRET ratio curve, often poorly fitted, with flat reads before Ran was added; inconclusive means other falling curves, or compound fluorescence or quenching; inactive means flat or rising ratio curve;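 further: potency means the concentration at half of the fitted maximal effect; % of control where 0% means no effect; nearly all actives have a fitted effect of over 45% in size; -100% = wells without RanGTP and RCC1; the record marks most hits as doubtful in a second field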
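Compounds preincubate 5 min with complex of recombinant Rango and importin beta in PBS with 1 mM DTT. Ran (0.6 uM) loaded with 2 mM GTP plus 0.2 uM RCC1 starts dissociation; FRET is recorded 45 min later.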
Rango-impB inh: Rango-importin beta binding inhibition; Potency, µM (doses to about 92.2 µM), inactives show at the top dose inhibition of complex formation; Rango CFP/YFP FRET sensor + importin beta, 45 min; hit rate 0.031% among 340,000; AID 540263; Q14974; active = rising FRET ratio curve, often small or poorly fitted; inconclusive = mostly compound fluorescence or quenching in the first reads; inactive = flat curves in all reads;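 further: potency means the concentration at half of the fitted maximal effect; 0% = DMSO wells and 100% = buffer wells lacking importin beta; nearly all actives have a fitted effect of over 15% in size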
Target sequence (Q14974 whole entry, looked up): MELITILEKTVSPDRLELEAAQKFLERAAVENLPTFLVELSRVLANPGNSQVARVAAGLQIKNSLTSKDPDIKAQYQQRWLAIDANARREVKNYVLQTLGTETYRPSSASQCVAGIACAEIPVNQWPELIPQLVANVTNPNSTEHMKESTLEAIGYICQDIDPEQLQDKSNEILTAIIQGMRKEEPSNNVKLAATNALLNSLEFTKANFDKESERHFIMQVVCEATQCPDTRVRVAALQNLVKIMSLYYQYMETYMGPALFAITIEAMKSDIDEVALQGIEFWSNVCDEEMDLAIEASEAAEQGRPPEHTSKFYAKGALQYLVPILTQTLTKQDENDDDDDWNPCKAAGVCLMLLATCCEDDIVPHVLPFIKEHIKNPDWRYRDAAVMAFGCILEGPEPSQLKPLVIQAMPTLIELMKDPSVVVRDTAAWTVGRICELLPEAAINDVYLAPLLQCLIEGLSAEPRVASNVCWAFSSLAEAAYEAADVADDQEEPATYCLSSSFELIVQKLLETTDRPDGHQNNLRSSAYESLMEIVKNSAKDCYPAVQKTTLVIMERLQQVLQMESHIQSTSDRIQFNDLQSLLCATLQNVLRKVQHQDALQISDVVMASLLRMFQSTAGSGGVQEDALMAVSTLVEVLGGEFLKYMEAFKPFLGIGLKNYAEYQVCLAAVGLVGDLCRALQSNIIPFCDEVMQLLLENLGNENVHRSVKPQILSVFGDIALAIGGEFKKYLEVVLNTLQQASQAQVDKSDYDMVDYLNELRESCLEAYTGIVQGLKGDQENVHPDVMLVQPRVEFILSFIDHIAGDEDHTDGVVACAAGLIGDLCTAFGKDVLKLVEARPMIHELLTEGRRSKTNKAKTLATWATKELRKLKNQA
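FRET biosensor (snurportin 1 IBB flanked by EYFP and cerulean), 50 nM, with compound 5 min, then 0.125 microM importin beta in PBS, 1 mM DTT, 0.02% Tween-20, 0.1% BSA. CFP/YFP ratio read after 45 min at room temperature; pre-read flags interference.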
* = called active by the depositor; ? = inconclusive; · = not tested or not shown; & = joins results of further samples. The list is partial; rates above refer to the full screens.

SMILES | GLA inh pH 4.5 | miR-21 FLuc | Rango dissoc inh | Rango-impB inh
Cc1ccc2oc(C(=O)NCc3ccccc3)cc(=O)c2c1 | · | -0.2% | -6.5% | -3.1%
COc1ccc(/C=C/C(=O)O/N=C(\N)c2ccccn2)cc1OC | · | · | 10.0% | 0.7%
COc1ccc(N2C(=O)CCC(C(=O)N3CCC(C(N)=O)CC3)C2c2ccc(F)cc2)cc1 (centres undefined) | -15.2 | -3.4% | 7.0% | 0.8%
CCOc1ccc(NC(=O)CCC(=O)NNC(=O)NC2CCCCC2)cc1 | · | 1.6% | -4.8% | 0.8%
Cc1nnc(SCC(=O)Nc2cccc(S(=O)(=O)N(C)c3ccccc3)c2)s1 | 5.4 | 14.2% | 14.5% | -0.7%
Cc1c(C(=O)NCc2cccnc2)sc2nc(-c3ccccc3)cn12 | · | -25.7% | 29.7% | ?
Cc1sc2nc(SCC(=O)c3cc(C)n(CC4CCCO4)c3C)n(C(C)C)c(=O)c2c1C (centres undefined) | -5.2 | -2.8% | -3.6% | -3.8%
O=C(Nc1c[nH]c(=O)[nH]c1=O)c1ccc2c(c1)C(=O)N(c1cccc([N+](=O)[O-])c1)C2=O | 6.3 | 0.5% | -3.9% | -1.7%
Cc1ccc(S(=O)(=O)N2CCOCC2)cc1C(=O)Nc1c(C)n(C)n(-c2ccccc2)c1=O | 0.6 | -6.9% | -1.1% | -4.2%
COc1ccc([N+](=O)[O-])cc1NC(=O)CC(C)c1ccccc1 (centres undefined) | 5.0 | -1.8% | 1.6% | -0.2%
CC(OC(=O)c1ccc(S(=O)(=O)N2CCOCC2)cc1)c1ccccc1 (centres undefined) | · | · | 10.0% | 0.3%
O=C(Nc1ccccc1)c1ccco1 | · | -29.3% | -4.0% | -0.8%
CN(CC(=O)Nc1cccc(F)c1)C(=O)CN1C(=O)NC2(CCCCC2)C1=O | · | · | 17.8% | 0.1%
O=C(CCCN1C(=O)/C(=C/c2ccco2)SC1=S)Nc1ccccc1 | -7.3 | 23.1% | 2.1% | 0.1%
COCCn1c(CN2CCN(c3ccc(OC)cc3)CC2)nc2c1c(=O)n(C)c(=O)n2C | 0.4 | -0.7% | -16.2% | -0.4%
N#Cc1c(NC(=O)CCC(=O)O)sc2c1CCCC2 | 0.7 | -11.5% | -17.0% | 1.5%
CCCC(=O)NC(Nc1cc(C(F)(F)F)ccc1Cl)C(Cl)(Cl)Cl (centres undefined) | 6.6 | 23.5% | -3.9% | 0.4%
CC1CN(C(=O)Cn2cnc3c2c(=O)n(C)c(=O)n3C)CC(C)O1 (centres undefined) | -2.7 | -2.8% | 32.5% | 0.8%
N#Cc1c(/N=C/c2cc(Br)cs2)sc2c1CCC2 | · | · | -12.9% | 0.5%
O=C(Nc1ccsc1C(=O)O)c1ccc(Cl)cc1 | · | -43.4% | -3.5% | -2.4%
COC(=O)CCCC1=CC2=C(c3ccccc3)C(=O)C(C)(OC(=O)C3CCCC3)C(=O)C2=CN1Cc1ccc2c(c1)OCO2 (centres undefined) | 3.8&-5.6 | -4.7% | -30.4% | ?
O=C(Nc1ccccc1)c1ccccc1OCc1cccc([N+](=O)[O-])c1 | -7.9 | -8.0% | -9.3% | 5.8%
O=C(O)CCC(=O)N1CCN(c2nc3ccccc3s2)CC1 | -5.7 | -7.7% | 4.1% | -1.7%
COc1ccc(CNC(=O)CSc2nnnn2Cc2ccccc2)cc1 | 8.1 | 18.0% | -14.5% | -4.2%
COc1ccc(OC)c(Nc2nc(-c3cccs3)cs2)c1 | 1.1 | -21.2% | -14.1% | -4.5%
COc1cc(/C=C/C(=O)N2CCOCC2)ccc1OCc1ccccc1 | 1.9 | 4.2% | 5.9% | -2.0%
CCOC(=O)c1c(-c2ccccc2)csc1NC(=O)CCN1C(=O)c2ccccc2C1=O | 0.5 | -3.6% | 4.4% | -4.0%
O=S(=O)(c1ccc2c(c1)C(O)c1ccccc1CC2)C(F)(F)F (centres undefined) | · | · | 30.2% | -2.3%
Cc1cc2oc3ccc(NCCCn4ccnc4)cc3c(=O)c2cc1C | · | · | ? | ?
CC(=O)OC(C(=O)NCc1ccc2c(c1)OCO2)c1ccccc1Cl (centres undefined) | -15.4 | -16.8% | -12.9% | -0.5%
CC(=O)c1c(C)[nH]c(C(=O)OCC(=O)N2CCN(S(=O)(=O)c3ccc(C)cc3C)CC2)c1C | 0.7 | 25.9% | -3.2% | 0.7%
Fc1cccc(Cl)c1Cn1nnc(-c2ccc(N3CCOCC3)cc2)n1 | 3.3 | -10.6% | 23.2% | 5.1%
CCOc1ccc2[nH]c(=O)c(CN(Cc3nnnn3CCc3ccccc3)CC3CCCO3)cc2c1 (centres undefined) | -1.4 | -17.2% | -5.4% | 3.4%
COc1ccc(N/C(=N\c2nc(C)cc(C)n2)NC(=O)C(C)C)cc1OC | 0.5 | -5.9% | -0.2% | -0.1%
CC1CCN(S(=O)(=O)c2ccc(Br)s2)CC1 | -3.3 | -2.3% | -7.2% | 0.6%
CC(C)(C)OC(=O)C[C@@H]1C/C=C\C[C@H](CC(=O)N(CCO)Cc2ccccc2)C(=O)NC[C@H](c2ccccc2)OC1=O | · | · | 9.5% | 5.2%
CCC(C(=O)NCCC1=CCCCC1)n1nc(C)c2c(C)n(-c3ccccc3)nc2c1=O (centres undefined) | · | 12.0% | -15.1% | -5.2%
COc1cc(/C=N/NC(=O)COc2ccc([N+](=O)[O-])cc2)ccc1OCC(=O)N1CCOCC1 | · | -0.6% | -10.1% | 0.1%
Cc1ccccc1N1C(=O)c2cccc3c(N(C)CCO)ccc(c23)C1=O | 2.9 | 0.2% | ? | ?
CSc1nsc(SCC(=O)Nc2nncs2)n1 | 6.2 | -1.9% | -20.5% | 3.6%

Arranged by molar mass (falling): part of the list above.
SMILES | GLA inh pH 4.5 | miR-21 FLuc | Rango dissoc inh | Rango-impB inh
CC(=O)c1c(C)[nH]c(C(=O)OCC(=O)N2CCN(S(=O)(=O)c3ccc(C)cc3C)CC2)c1C | 0.7 | 25.9% | -3.2% | 0.7%
CC(=O)OC(C(=O)NCc1ccc2c(c1)OCO2)c1ccccc1Cl (centres undefined) | -15.4 | -16.8% | -12.9% | -0.5%
COc1cc(/C=C/C(=O)N2CCOCC2)ccc1OCc1ccccc1 | 1.9 | 4.2% | 5.9% | -2.0%
N#Cc1c(/N=C/c2cc(Br)cs2)sc2c1CCC2 | · | · | -12.9% | 0.5%
O=C(Nc1ccccc1)c1ccco1 | · | -29.3% | -4.0% | -0.8%

New compounds follow
SMILES | GLA inh pH 4.5 | miR-21 FLuc | Rango dissoc inh | Rango-impB inh
Cc1ccc(S(=O)(=O)Nc2ccccc2C(=O)N2CCOCC2)cc1 | · | -0.8% | -19.6% | -1.4%
CCOC(=O)c1c(N)sc(=S)c2c1CCC2 | -3.9 | 1.0% | -3.9% | -0.6%
COc1ccc(C(=O)O/N=C(\N)c2ccccn2)c(OC)c1 | -5.9 | 23.0% | 1.5% | -0.2%
c1ccc(CNc2nc(-c3cccs3)nc3ccccc23)cc1 | -6.4 | -7.9% | 20.2% | 0.8%
COc1ccccc1N1CCN(C(=O)c2sc3ncnc(N4CCN(c5ccccn5)CC4)c3c2C)CC1 | · | 24.2% | -10.1% | 5.5%
COc1ccc(CSc2nnnn2-c2ccc(O)cc2)cc1F | · | 12.7% | -15.7% | 0.0%
COc1ccc(Nc2nc(-c3sc(NC(C)=O)nc3C)cs2)cc1 | 0.0 | -40.2% | · | ·
COc1ccc(-c2cc(C(F)(F)F)nc(SCC(=O)N(C)Cc3cn(C)nc3C)n2)cc1OC | 6.7 | -20.2% | -0.1% | -2.1%
C=C1C(=O)C2=CC1CCC(=O)C1(C)CCC(OC(C)=O)C(C)(C)C1CC2O (centres undefined) | · | · | 25.6% | 1.2%
O=C1CC(C(=O)N2CCc3ccccc32)CN1c1cccc(C(F)(F)F)c1 (centres undefined) | · | · | -6.8% | -0.8%
CCCN(CCC)CCNC(=O)c1cc2c(=O)n(C)c3ccccc3c2n1C | 5.1 | -1.1% | 13.4% | 0.1%
S=c1[nH]nc(Cn2nnc3ccccc32)n1-c1ccc(Cl)cc1 | 3.1 | -1.3% | 0.2% | -2.2%
O=C(COc1ccccc1)Nc1sc2c(c1C(=O)NCc1cccnc1)CCCC2 | 6.3 | -38.0% | 0.5% | -0.8%
Cc1ccc(C)c(S(=O)(=O)N2CCN(C(=O)[C@H](Cc3ccccc3)NC(=O)c3ccco3)CC2)c1 | · | · | -0.5% | -1.8%
COc1cccc2c(=O)n(CC(=O)Nc3ccc(F)cc3F)ccc12 | 4.9 | -1.8% | -21.8% | 1.0%
CN(CC(=O)Nc1cccc(F)c1)C(=O)c1ccc2c(c1)NC(=O)CS2 | · | · | 5.3% | -3.3%
CCOc1ccc(NC(=O)C(=O)N/N=C/c2ccccc2F)cc1 | -4.7 | 1.5% | -15.2% | 0.7%
COc1ccc(OC)c(/C=N/NC(=O)CCc2c(C)n[nH]c2C)c1 | ? | -7.6% | -3.6% | -2.0%
Cc1ccc(C)c(S(=O)(=O)N/N=C/c2ccc(C(=O)O)cc2)c1 | 0.0 | 1.8% | 12.7% | -0.9%
CCN(CC)CCNc1ccc(Cl)cc1[N+](=O)[O-] | · | · | -4.1% | -0.3%
CCOC(=O)COc1c(-c2ccc(OC)cc2)oc2ccccc2c1=O | 0.7 | -5.3% | 3.1% | -2.9%
CC(C)NCCCCOc1ccccc1-c1ccccc1 | -0.1 | -0.5% | · | ·
COC(=O)C1=C(CSc2nnnn2C)NC(=O)NC1c1cc(C)ccc1C (centres undefined) | -6.4 | -2.1% | 1.4% | 2.2%
O=C(O)COc1ccc(Nc2ccccc2)cc1 | 0.2 | 5.5% | 13.6% | 0.8%
CN(CC(=O)Nc1ccccc1Br)C(=O)CN(C)C1CCCCC1 | · | · | -14.2% | 5.2%
COCCCN1CN(Cc2ccco2)CNC1=S | -2.7 | -0.4% | 3.1% | -0.9%
COc1cc(OC)c(OC)cc1/C=N/NC(=O)c1cc(-c2cccn2C)n[nH]1 | 9.2 | 0.6% | -15.6% | 4.2%
CC1(NC(=O)CC(c2ccccc2)(c2ccccc2)c2ccccc2)CCN(CCCc2ccccc2)C1=O (centres undefined) | · | · | 9.4% | 3.4%
Cc1ccc(C)c(SCC(=O)OCC(=O)Nc2ccc(S(=O)(=O)N3CCOCC3)cc2)c1 | -14.5 | -0.5% | 7.2% | -0.6%
CCOC(=O)c1c(C)[nH]c(C(=O)COC(=O)c2ccco2)c1C | · | · | 1.3% | 1.0%
CCC(C)(C)NC(=O)C(c1ccccc1F)N(Cc1ccco1)C(=O)c1csnn1 (centres undefined) | 0.2 | -1.0% | 8.3% | -2.0%
Cc1cc(C)cc(NC(=S)NC2CC3CCCC(C2)N3CC(C)C)c1 (centres undefined) | 24.6 | -2.9% | -9.3% | -3.4%
N#CCO/N=C/C(=O)Nc1ccc(F)cc1F | -16.9 | -6.9% | -12.1% | -2.4%
O=C(Nc1ccc(-c2nc3cccnc3s2)cc1)c1cccnc1Cl | -0.9 | -42.9% | 7.0% | -4.5%
Cc1cc(C)c(-c2c(O)c3cnn(-c4ccccc4)c3[nH]c2=O)c(C)c1 | 3.4 | -0.7% | 5.2% | 3.8%
COc1cc(NC(=O)CNc2ccc(Cl)c(S(=O)(=O)N3CCOCC3)c2)cc(OC)c1 | · | · | 25.3% | 3.0%
O=C(Nc1ccnn1C1CCN(C(=O)c2cccc(Cl)c2)CC1)C1CC1 | · | -0.2% | -3.1% | -0.3%
O=C1CCCN1c1ccc(S(=O)(=O)NCCOc2ccccc2)cc1 | -8.5 | -0.8% | 18.3% | -2.4%
Cc1cc(OCC(=O)NNC(=O)c2cccc(F)c2)ccc1Cl | · | · | 5.4% | 7.6%
Cc1c(NC(=O)c2c(O)c3ccccc3n(C)c2=O)c(=O)n(-c2ccccc2)n1C | 0.8 | -2.5% | 25.8% | 0.5%
CCOc1ccc(NC(=O)NNC(=O)c2cc3ccccc3cc2O)cc1 | · | -3.9% | ? | ?
